Methyltransferases: Primary Screen for Target Class Profiling of Small Molecule Inhibitors of Methyltransferases; purified enzyme, MTase-Glo SAH luminescence; active compounds read low; calls only at 40 µM; hit rate 3.9% among 25,000; active = -50% or lower on at least one of six enzymes; inconclusive = the cases between; inactive = as a rule above -30% on all six;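 note: enzymes were COMT GAMT GNMT HNMT NNMT and PNMT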
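Each enzyme was assayed with SAM and its substrate. SAH formation detected by MTase-Glo luminescence; single-point 40 uM screen[…].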
Calls only; i = inactive; ? = inconclusive; + = active, no number. % is set by controls: 0 for no effect and ±100 for the full control effect. Not all compounds are listed. The share of hits here may be higher or lower than overall.

molecule,Methyltransferases
Cc1ccccc1N1C(=O)c2cc3occc3n2CC1(C)C(=O)NC1CCCCCC1 (configuration not stated),i
COc1ccc(C)cc1NS(=O)(=O)c1ccc2[nH]c(=O)[nH]c2c1,i
CN1CCCn2nc(C(=O)N(C)Cc3nc4ccc(Cl)cc4[nH]3)cc2C1,i
CCOC(=O)c1cc2n(n1)CC(C)(C(=O)NC1CCCC1)N(c1ccc(C)cc1)C2=O (configuration not stated),i
CC(C)CN1CCN(C(=O)CC2CCN(S(C)(=O)=O)C2)CC1 (configuration not stated),i
COc1cc(Cl)c(C)cc1N1C(=O)CSc2c(c3ccccc3n2C)C1C(=O)NCc1ccccc1 (configuration not stated),i
OCC(CO[C@@H]1O[C@H](CO)[C@@H](O)[C@H](O)[C@H]1O)c1ccc2c(c1)OCO2 (some centres not stated),i
COc1ccccc1CN1C(=O)c2nc3ccccc3n2CC1(C)C(=O)NC1CCCCC1 (configuration not stated),i
CC1CCC23COC(=O)C2=CC(O)CC3C1(C)CCc1ccoc1 (configuration not stated),i
Cc1ccccc1CN1C(=O)c2ccc(-c3ccccc3)n2CC1(C)C(=O)NC1CCCCCC1 (configuration not stated),i
COc1cccc(NC(=O)CCc2nnc3n(Cc4ccc(F)cc4)c(=O)c4ccccc4n23)c1,i
Cc1noc(C)c1-c1cnc(Nc2ccc(CN3CCN(C)CC3)cc2)c2c1CCO2,i
CC(C)OCCCNc1nc2c(-c3ccccc3)nnn2c2ccccc12,i
C=C1C(=O)O[C@H]2C1CCC(C)=C1C(=O)C=C(C)[C@@]12O (some centres not stated),i
CC(C)CNC(=O)c1ccc2c(=O)n(Cc3ccccc3)c3nn(Cc4ccccc4F)c(=O)n3c2c1,i

Among those listed so far, these have an NH in an aromatic ring.
molecule,Methyltransferases
COc1ccc(C)cc1NS(=O)(=O)c1ccc2[nH]c(=O)[nH]c2c1,i
CN1CCCn2nc(C(=O)N(C)Cc3nc4ccc(Cl)cc4[nH]3)cc2C1,i

The main list resumes with the two entries that preceded the break.
molecule,Methyltransferases
C=C1C(=O)O[C@H]2C1CCC(C)=C1C(=O)C=C(C)[C@@]12O (some centres not stated),i
CC(C)CNC(=O)c1ccc2c(=O)n(Cc3ccccc3)c3nn(Cc4ccccc4F)c(=O)n3c2c1,i
COC(=O)C1C(CC(C)=O)C=CC(O)C12Oc1cc(C)cc(O)c1C2=O (configuration not stated),i
COc1ccc(CN2C(=O)c3cc(-c4ccccc4)nn3CC2(C)C(=O)NCc2ccccc2OC)cc1 (configuration not stated),i
CCOc1ccccc1CN1C(=O)c2nc3ccccc3n2CC1(C)C(=O)NCc1ccccc1 (configuration not stated),i
COc1ccc(/C=C/C(N)=O)cc1OC,i
Cc1ccc(Cn2c(=O)c3ccccc3n3c(-c4cccc(Cl)c4)nnc23)cc1,i
COc1ccc(-c2nnc(-c3ccc(Cl)c(S(=O)(=O)N4CCCCC4)c3)o2)cc1OC,i
O=C(c1ccncc1)N1CC(c2nc(CCc3ccccc3)no2)C1,i
CCOC(=O)c1cc2n(n1)CC(C)(C(=O)NC1CCCCCC1)N(c1ccc(F)cc1)C2=O (configuration not stated),i
O=C(NCC1CN(C(=O)NC2CCCCC2)CC12CCCCC2)C1CC1 (configuration not stated),i
Cc1cc2c(cc3n2CC(C)(C(=O)NC2CCCCCC2)N(CCC(C)C)C3=O)o1 (configuration not stated),i
Cn1c(=O)n(C)c2cc(S(=O)(=O)Nc3ccccc3)ccc21,i
O=C(CC1CCCN(c2cn[nH]c(=O)c2)C1)N1CCCCC1 (configuration not stated),i
Cc1cccc(CN2C(=O)c3ccc(-c4ccco4)n3CC2(C)C(=O)NC2CCCCCCC2)c1 (configuration not stated),i
CC(/C=C/C1(O)C(C)(C)CC(O)CC1(C)O)OC1OC(CO)C(O)C(O)C1O (configuration not stated),?
CCCN1C(=O)c2c(-n3cccc3)c3cc(C)ccc3n2CC1(C)C(=O)NC1CCCCC1 (configuration not stated),i

molecule,Methyltransferases
CC(=O)OC(C)(C)/C=C/C(=O)[C@](C)(O)[C@H]1C(O)C[C@@]2(C)[C@@H]3CC=C4[C@@H](C=C(O[C@@H]5O[C@H](CO)[C@@H](O)[C@H](O)[C@H]5O)C(=O)C4(C)C)[C@]3(C)C(=O)C[C@]12C (some centres not stated),i
COc1ccc(C(=O)N(Cc2ccccc2)S(=O)(=O)c2ccc3c(c2)n(C)c(=O)n3C)cc1,i
CC(=O)NC(C(=O)O[C@H]1CCC(C)(C)[C@@H]2CC=C3C(=O)OCC3(O)[C@@]12C)C(C)C (some centres not stated),i
CCC(O)C(C)C1CCC(C(C)C(=O)O)O1 (configuration not stated),i
CC1CCN(S(=O)(=O)c2ccc3c(ccn3CC(=O)NCc3ccccc3F)c2)CC1,i
Cc1ccc(CNC(=O)N(C)CC2CCOCC2)cc1,i
CC1=C2CC3OC3(C)CCC3OC3(C)CC2OC1=O (configuration not stated),i
CC1(C)C(=O)N2c3ccccc3[C@]3(CC(n4cnc5ccccc5c4=O)C(=O)O3)[C@H]2N1O (some centres not stated),i
COC(=O)c1ncn2c1C(=O)N(Cc1ccc(SC)cc1)C(C)(C(=O)NCc1ccccc1)C2 (configuration not stated),i
COc1ccc(C)cc1N1C(=O)Cn2cccc2C1C(=O)NC1CCC(C)CC1 (configuration not stated),i
O=C(Nc1ccccc1C(=O)Nc1ccc(CCO)cc1)c1ccc([N+](=O)[O-])cc1,i
COc1ccc2cc3n(c2c1)CC(C)(C(=O)NC1CCCCC1)N(CCCN1CCOCC1)C3=O (configuration not stated),i
COCc1cc([C@H]2N[C@@](C)(C(=O)OC)[C@H]3C(=O)N(C)C(=O)[C@@H]23)ccc1OC,i
O[C@]1(c2ccccc2)CCN(Cc2ccncc2)C[C@H]1N1CCCC1,i
CCCOc1c(CN2CCCNCC2)cc(Cl)cc1OC,i

> CC(C)Cn1c(=O)c2ccccc2n2c(CCC(=O)Nc3cccc(Cl)c3)nnc12
  Methyltransferases = i

> CC1CCC(NC(=O)C2(C)Cn3c(nc4ccccc43)C(=O)N2Cc2ccco2)CC1 (configuration not stated)
  Methyltransferases = i

> C[C@@H]1O[C@@H](O[C@@H]2[C@@H](O)[C@H](O[C@@H]3[C@@H](O)[C@@H](O)[C@H](O[C@H]4[C@H](OC(=O)[C@]56CCC(C)(C)C[C@H]5C5=CCC7[C@@]8(C)C[C@H](O)[C@H](O[C@@H]9O[C@@H](C)[C@H](O)[C@@H](O)[C@H]9O)[C@@](C)(CO)C8CC[C@@]7(C)[C@]5(C)C[C@H]6O)O[C@H](C)[C@H](O)[C@@H]4O)O[C@H]3C)OC[C@H]2O)[C@H](O)[C@H](O)[C@H]1O (some centres not stated)
  Methyltransferases = i

> CCCn1c(=O)c2ccc(Cl)cc2n2c(=O)n(CC(=O)c3ccc(OC)cc3)nc12
  Methyltransferases = i

> Brc1cccc(-c2nnn3c2nc(NC2CCCC2)c2ccccc23)c1
  Methyltransferases = i

> CCOCCCN1C(=O)c2ccc(-c3ccco3)n2CC1(C)C(=O)NC1CCCCCC1 (configuration not stated)
  Methyltransferases = i

> Nc1ccc2c3c(cccc13)C(=O)NC2=O
  Methyltransferases = +

> COc1ccccc1CN1C(=O)c2cc3ccccc3n2CC1(C)C(=O)NCc1ccccc1 (configuration not stated)
  Methyltransferases = i

> Cn1cc(CNC(=O)c2ccc(S(=O)(=O)N[C@@H]3CCNC3)cc2)cn1
  Methyltransferases = i

> CC(C)Cn1c(=O)c2ccc(C(=O)NC(C)C)cc2n2c(SCc3ccccc3)nnc12
  Methyltransferases = i

> Cc1nc2sc(C(=O)NCc3ccncc3)c(N)c2c(C)c1Cl
  Methyltransferases = i

> CC(C)Cn1c(=O)c2cc(F)ccc2n2c(SCc3ccccc3Cl)nnc12
  Methyltransferases = i

> COc1ccc(CNC(=O)Cn2c(=O)oc3cc(S(=O)(=O)N4CCC(C)CC4)ccc32)cc1
  Methyltransferases = i

> CC1CCN(S(=O)(=O)c2ccc3c(ccn3CC(=O)NCC(C)c3ccccc3)c2)CC1 (configuration not stated)
  Methyltransferases = i

> Oc1cc2c(cc1O)C(c1ccccc1)CNCC2 (configuration not stated)
  Methyltransferases = +

> Cc1ccc(C)c(NS(=O)(=O)c2cc3c(cc2Cl)n(C)c(=O)n3C)c1
  Methyltransferases = i

> O=C(c1ccncc1)N1CCC2(CC1)CN(c1ncccn1)CC2CO (configuration not stated)
  Methyltransferases = i

> Cc1nc(C)c(C(=O)N2CCCC(c3nn(C)c(=O)n3C(C)C)C2)s1 (configuration not stated)
  Methyltransferases = i

> COCCN1C(=O)c2c(-n3cccc3)c3cc(C)ccc3n2CC1(C)C(=O)NCCC(C)C (configuration not stated)
  Methyltransferases = i

> CCOc1ccccc1CN1C(=O)CSc2c(c3ccccc3n2C)C1C(=O)NCc1ccccc1 (configuration not stated)
  Methyltransferases = i

> C[C@@H]1C[C@@H](O)[C@@]2(CO)C(CO)=CCC[C@@H]2[C@@]12C[C@@H](c1ccoc1)OC2=O
  Methyltransferases = i

> CC(C)CN1CCN(c2nc(CCN)nc3ccccc23)CC1CCO (configuration not stated)
  Methyltransferases = i

> CCC(C)N1C(=O)c2cc3occc3n2CC1(C)C(=O)NC1CCCCCC1 (configuration not stated)
  Methyltransferases = i

> CC(=O)OC[C@]1(O)[C@H]2[C@H](OC(=O)CC(C)C)OC=C(CO[C@@H]3O[C@H](CO)[C@@H](O)[C@H](O)[C@H]3O)[C@H]2C[C@@H]1O
  Methyltransferases = i

> CC1=C2C(O)C(=O)OC(c3ccoc3)C2(C)CCC1O (configuration not stated)
  Methyltransferases = i

> Cc1ccc(C(=O)Cn2nc3n(CCC(C)C)c(=O)c4ccccc4n3c2=O)c(C)c1
  Methyltransferases = i

> C=CCNC(=O)c1cc2n(n1)CC(C)(C(=O)NCc1ccccc1)N(C)C2=O (configuration not stated)
  Methyltransferases = i

> c1ccc(-c2nc(C3CCOCC3)no2)c(OC2CCN(C3CCCC3)C2)c1 (configuration not stated)
  Methyltransferases = ?

> COCc1nc(C2CCN(C(=O)NCC(C)C)C2)no1 (configuration not stated)
  Methyltransferases = i

> Cc1ccc(CCNC(=O)c2nnn3c2COC(c2ccc(Cl)cc2)C3)cc1 (configuration not stated)
  Methyltransferases = i

> O=C(CCc1nnc2n(Cc3ccc(Cl)cc3)c(=O)c3ccccc3n12)NCc1ccccc1
  Methyltransferases = i

> Cc1noc(-c2cccn3c(CNC(=O)Cc4cccc(F)c4)nnc23)n1
  Methyltransferases = i

> Cn1c(=O)n(C)c2cc(S(=O)(=O)Nc3ccc(Br)cc3)ccc21
  Methyltransferases = i

> CCC(C)NC(=O)c1ccc2c(=O)n(C)c3nn(CC(=O)c4ccc(C)cc4C)c(=O)n3c2c1 (configuration not stated)
  Methyltransferases = i

> CCc1cc2c(cc3n2CC(C)(C(=O)NC2CCCCC2)N(c2cccc(OC)c2)C3=O)s1 (configuration not stated)
  Methyltransferases = i

> COc1cccc(CN2C(=O)c3cc4occc4n3CC2(C)C(=O)NC2CCC(C)CC2)c1 (configuration not stated)
  Methyltransferases = i

> Cn1nccc1C(=O)N1C[C@@H](COc2ccccc2)[C@H](C(N)=O)C1
  Methyltransferases = i

> CCOC(=O)c1cc2n(n1)CC(C)(C(=O)NC1CCCCC1)N(c1cccc(C)c1C)C2=O (configuration not stated)
  Methyltransferases = i

> Cc1cc2c(cc3n2CC(C)(C(=O)NC2CCCCC2)N(Cc2ccc(OC(C)C)cc2)C3=O)o1 (configuration not stated)
  Methyltransferases = i

> c1cncc(CN2CC[C@H](c3nnc(Cc4c[nH]c5ccccc45)o3)C2)c1
  Methyltransferases = i

> Oc1ccc(NCCN2CCCC2)cc1
  Methyltransferases = +

> CCCn1c(=O)c2ccc(C(=O)NCC(C)C)cc2n2c(SCC(=O)Nc3ccc(C)cc3C)nnc12
  Methyltransferases = i

> CCCNC(=O)N1Cc2c(sc3c2CCCC3)-n2cccc2C1c1cccc(OCC)c1 (configuration not stated)
  Methyltransferases = i

> O=C(CSc1nnc2n(CCc3ccccc3)c(=O)c3ccccc3n12)Nc1ccc(F)cc1F
  Methyltransferases = i

> COc1cccc(CNC(=O)c2ncn3c2C(=O)N(C2CC2)C(C)(C(=O)NCc2ccccc2Cl)C3)c1 (configuration not stated)
  Methyltransferases = i

> CC(C)CCNC(=O)N1c2ccccc2CC1c1noc(C2CCOCC2)n1 (configuration not stated)
  Methyltransferases = i

> CN1C(=O)c2cc(C(=O)NC3CCN(Cc4ccccc4)CC3)nn2CC1(C)C(=O)NCc1ccccc1 (configuration not stated)
  Methyltransferases = i

> CN1C(=O)c2cc(C(=O)NCCCN3CCOCC3)nn2CC1(C)C(=O)NCc1ccc(F)cc1 (configuration not stated)
  Methyltransferases = i

> C[C@@H](NC(=O)C(=O)c1c[nH]c2ccc([N+](=O)[O-])cc12)c1ccccc1
  Methyltransferases = i

> O=C(Cn1ccc2cc(S(=O)(=O)N3CCCCC3)ccc21)NCc1cccc(Br)c1
  Methyltransferases = i

Gathered by group, those above containing a thiophene ring, fused or not.
> Cc1nc2sc(C(=O)NCc3ccncc3)c(N)c2c(C)c1Cl
  Methyltransferases = i

> CCc1cc2c(cc3n2CC(C)(C(=O)NC2CCCCC2)N(c2cccc(OC)c2)C3=O)s1 (configuration not stated)
  Methyltransferases = i

> CCCNC(=O)N1Cc2c(sc3c2CCCC3)-n2cccc2C1c1cccc(OCC)c1 (configuration not stated)
  Methyltransferases = i

Later entries:
> O=C1NCCC[C@@H]1NC(=O)[C@H]1CN(C(=O)NC2CCCCC2)CCN1S(=O)(=O)c1ccc(F)cc1
  Methyltransferases = i

> Cn1c(=O)c2ccc(C(=O)NC3CCCC3)cc2n2c(SCc3c(F)cccc3Cl)nnc12
  Methyltransferases = i

> CN1CCN(C(=O)c2nn(C)c3c2CCCC3)CC12CCNC(=O)CC2 (configuration not stated)
  Methyltransferases = i

> CCCCN1C(=O)c2cc(C(=O)NCCc3cccs3)nn2CC1(C)C(=O)NC1CCCC1 (configuration not stated)
  Methyltransferases = i

> CCOC(=O)c1cc2n(n1)CC(C)(C(=O)NCCOC)N(c1ccc(F)cc1)C2=O (configuration not stated)
  Methyltransferases = i

> Cc1ccc(N2C(=O)c3cc4sccc4n3CC2(C)C(=O)NC2CCC(C)CC2)cc1C (configuration not stated)
  Methyltransferases = i

> CN(C)S(=O)(=O)N1CCc2nn(C)c(=O)n2CC1
  Methyltransferases = i

> COc1ccc(S(=O)(=O)Nc2nc(-c3cccc([N+](=O)[O-])c3)cs2)cc1OC
  Methyltransferases = i
